HPGD inh – qHTS Assay for Inhibitors of HPGD (15-Hydroxyprostaglandin Dehydrogenase) | purified HPGD, NADH fluorescence kinetic, PGE2 substrate | 150,000 tested, 4.3% active | Potency, µM, for the others: top-dose activity change, negative = inhibition, hits mostly inhibitors; active = well fitted inhibition curve with a large enough effect (not every such curve was filed as active); inconclusive = small, poorly fitted or top-dose-only effect, or another doubt; inactive = no such curve, though single readings can be large or run the other way;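 further: top concentration of the series not given in the record; plate controls included wells without enzyme; inactives centre near -10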
Target sequence (P15428 whole entry, looked up): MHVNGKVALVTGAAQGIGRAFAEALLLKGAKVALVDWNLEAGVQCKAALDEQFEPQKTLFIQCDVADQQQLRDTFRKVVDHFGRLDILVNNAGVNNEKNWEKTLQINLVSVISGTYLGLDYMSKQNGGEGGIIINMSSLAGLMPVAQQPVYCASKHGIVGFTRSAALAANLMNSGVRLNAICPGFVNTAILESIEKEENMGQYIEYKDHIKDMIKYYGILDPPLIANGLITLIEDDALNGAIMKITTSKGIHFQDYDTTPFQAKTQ
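NADH formation kinetics: reaction with 30 uM PGE2 and 1 mM NAD+ (final), 20 nM enzyme, Tris-HCl pH 8 with Tween 20, after 15 min compound preincubation at room temperature. Fluorescence change, last versus first of five reads.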
* = called active by the depositor; ? = inconclusive; & = joins results of further samples; ! = repeats disagree. On the % scale 0 is the no-effect control and ±100 the full control effect; potency means the concentration at half of the fitted maximal effect.

SMILES	HPGD inh
NC(=O)C1(N2CCCCC2)CCN(C(=O)CSc2nc(C(F)(F)F)cc(=O)[nH]2)CC1	-4%
CN1C(=O)Cn2c1nc1ccccc12	-18%
C=CCN(CC=C)C(=S)NC(=O)c1ccc(C)c(Br)c1	-6%
COc1ccc(OC)c(-n2c(SCC(=O)Nc3cc(C)on3)nnc2-c2c[nH]c3ccccc23)c1	-17%
Cc1nnsc1SC(C)C(=O)O (centres undefined)	-13%
CCCCOC(=O)Nc1cccc(C(C)=O)c1	28µM*
O=C(Cc1ccccc1)NNC(=S)Nc1ccc(Cl)cc1	-7%
COCCCNC(=S)NNC(=O)c1ccc2c(c1)OCO2	-2%
Nc1c(C(=O)Nc2ccc(F)cc2)sc2nc(-c3ccco3)ccc12	?
c1ccc(Cn2nnnc2CN2CCN(c3ncccn3)CC2)cc1	-3%
COc1ccc(NC(=O)C2C3CCC(C3)C2C(=O)O)cc1OC (centres undefined)	0%
COc1ccc(NC(=O)c2ccccc2NC(=O)C2CCCO2)cc1 (centres undefined)	-5%
COc1ccc(Br)cc1/C=N/Nc1cccc(C(=O)O)c1	-15%
O=C(Cc1cccs1)N1CCN(S(=O)(=O)c2ccccc2)CC1	-9%
COc1ccc(CC(=O)OCCN(C)C)cc1	-12%
Cc1cc(-c2ccccc2)n(-c2ccc(C(=O)N3CCN(c4ncccn4)CC3)cc2)n1	-1%
COC(=O)c1c(NC(=O)CN2C(=O)C(=O)N(CC(C)C)C2=O)sc2c1CCCCC2	-9%
CC1CCCC(NS(=O)(=O)c2ccc3c(c2)OCCO3)C1C (centres undefined)	-13%
COCc1[nH]nc2c1C(c1cc(OC)c(O)c(OC)c1)C(C#N)=C(N)O2 (centres undefined)	-22%
O=C(C1CCCN(Cc2ccccc2)C1)N1CCc2ccccc2C1 (centres undefined)	-3%
COC(=O)CCCC1=CC2=CC(=O)C(C)(OC(=O)c3cccs3)C(=O)C2=CN1c1ccc(CO)cc1 (centres undefined)	-7%
COc1ccc(/C=N/NC(=O)CC(=O)NCc2cccnc2)cc1	-14%
Cc1ccc(OC(C)C)c(CN(CCO)CCO)c1	-4%
CCc1ccc(OCC(=O)NC(NC(=S)Nc2ccccc2)C(Cl)(Cl)Cl)cc1 (centres undefined)	-7%
Cc1noc(C)c1COC(=O)c1cc(C)n(-c2ccccc2)c1C	-18%
O=C1c2ccccc2C(=O)N1CN(C(=O)COc1ccccc1)c1ccc(F)cc1	-15%
Cn1c(=O)c(C(=O)COC(=O)c2cc(C(F)(F)F)nc3c(C(F)(F)F)cccc23)c(N)n(Cc2ccccc2)c1=O	-10%
CC(C)CCSc1ncnc2c1oc1nc3c(cc12)COC(C)(C)C3	-4%
CSc1nnc2n(C)c3c(c(=O)n12)C1(CCCC1)Cc1ccccc1-3	?
CN1CCc2cccc3c2[C@@H]1Cc1ccc(O)c(O)c1-3	8.9µM*!

A different layout for part of the listing above.
mol | HPGD inh
O=C(Cc1cccs1)N1CCN(S(=O)(=O)c2ccccc2)CC1 | -9%
COc1ccc(CC(=O)OCCN(C)C)cc1 | -12%
Cc1cc(-c2ccccc2)n(-c2ccc(C(=O)N3CCN(c4ncccn4)CC3)cc2)n1 | -1%
COC(=O)c1c(NC(=O)CN2C(=O)C(=O)N(CC(C)C)C2=O)sc2c1CCCCC2 | -9%
CC1CCCC(NS(=O)(=O)c2ccc3c(c2)OCCO3)C1C (centres undefined) | -13%
COCc1[nH]nc2c1C(c1cc(OC)c(O)c(OC)c1)C(C#N)=C(N)O2 (centres undefined) | -22%
O=C(C1CCCN(Cc2ccccc2)C1)N1CCc2ccccc2C1 (centres undefined) | -3%
COC(=O)CCCC1=CC2=CC(=O)C(C)(OC(=O)c3cccs3)C(=O)C2=CN1c1ccc(CO)cc1 (centres undefined) | -7%
COc1ccc(/C=N/NC(=O)CC(=O)NCc2cccnc2)cc1 | -14%
Cc1ccc(OC(C)C)c(CN(CCO)CCO)c1 | -4%
CCc1ccc(OCC(=O)NC(NC(=S)Nc2ccccc2)C(Cl)(Cl)Cl)cc1 (centres undefined) | -7%
Cc1noc(C)c1COC(=O)c1cc(C)n(-c2ccccc2)c1C | -18%
O=C1c2ccccc2C(=O)N1CN(C(=O)COc1ccccc1)c1ccc(F)cc1 | -15%
Cn1c(=O)c(C(=O)COC(=O)c2cc(C(F)(F)F)nc3c(C(F)(F)F)cccc23)c(N)n(Cc2ccccc2)c1=O | -10%
CC(C)CCSc1ncnc2c1oc1nc3c(cc12)COC(C)(C)C3 | -4%
CSc1nnc2n(C)c3c(c(=O)n12)C1(CCCC1)Cc1ccccc1-3 | ?
CN1CCc2cccc3c2[C@@H]1Cc1ccc(O)c(O)c1-3 | 8.9µM*!

(next part)
SMILES	HPGD inh
COc1cc2cc(C(c3nnnn3C3CCCCC3)N(C)C3CCCCC3)c(=O)[nH]c2cc1OC (centres undefined)	-26%
Cc1cc(C)n(-c2ccc(Cl)c(C(=O)OCC(N)=O)n2)n1	-8%
CCOc1ccc(Cc2c(Cl)nc(SC)nc2OC)cc1	-14%
CN(C(=O)C1CCOC1)c1nnc(-c2cnccn2)s1 (centres undefined)	-14%
Cc1ccc(S(=O)(=O)N(CC(O)CN(C)C)c2ccccc2)cc1 (centres undefined)	-7%
Cn1c(SCC(=O)c2ccc3c(c2)Cc2ccccc2-3)nnc1-c1cccc(N)c1	-29%
FC(F)(F)c1cc(NC(=S)N2c3ccccc3-n3cccc3[C@H]2c2cccnc2)cc(C(F)(F)F)c1	?
Cc1csc(NC(=O)CCc2ccc(S(=O)(=O)N3CCOCC3)cc2)n1	-21%
CCOC(=O)N1CCN(C(=S)Nc2cccc(C)c2)CC1	-4%
O=C(NCc1ccc(Cl)cc1Cl)c1ccccn1	-27%
COc1ccc2nc3c(nc2c1)C(=O)c1ccccc1-3	-4%
CC1(C)CC(=O)CC(C2(O)C(=O)N(Cc3ccccc3)c3ccccc32)O1 (centres undefined)	-23%
COc1ccc(-c2c(C)n([O-])c(C)c(-c3ccccc3)[n+]2=O)cc1OC	-5%
COc1ccccc1NS(=O)(=O)CC12CCC(CC1=O)C2(C)C (centres undefined)	-8%
CC(C)CCN1CC(O)=C(c2nc(-c3ccc(Cl)cc3)cs2)C1=N	-17%
CN1/C(=C\C=[N+](C)c2ccccc2)C(C)(C)c2ccccc21	-3%
CC(c1ccccc1)n1c(NCCCn2ccnc2)nc2c1c(=O)[nH]c(=O)n2C (centres undefined)	-7%
COc1ccc(CCNc2c(C)c(C)nc3ncnn23)cc1	-10%
COc1ccc(S(=O)(=O)N/N=C(/C)c2ccc(Cl)cc2)cc1	0%
Cc1ccc(C(=O)N(Nc2nc3ccccc3s2)C(=O)c2ccc(C)cc2)cc1	-13%
CCCCNCCOCCOc1ccc(Cl)cc1Br	-4%
CCOC(=O)c1c(NC(=O)CSc2nncn2C)sc(C)c1C	-14%
Nc1nnnn1/N=C/c1cc(Cl)cc(Cl)c1OCc1ccc(Cl)cc1Cl	?
COC(=O)c1ccc(Cn2nc(C)cc2C)cc1	-7%
COc1ccc(Br)c2oc(S)cc(=O)c12	-16%
Fc1ccc(Nc2ncnc3sc4c(c23)CCC4)cc1F	-17%
Cc1ccc(S(=O)(=O)N2CCCCC2)cc1NC(=O)COC(=O)c1ccc2c(c1)OCO2	-22%
CN(NC1CC(=O)N(c2ccccc2)C1=O)c1ccccc1 (centres undefined)	-28%
CCn1c(/C=C/Nc2ccccc2)[n+](CC)c2cc(Cl)c(Cl)cc21	-2%
C/C=C/c1ccc(OCCCCOc2ccccc2C(C)=O)c(OC)c1	14µM*
CCOC(=O)c1ccc(NC(=O)COc2ccc(S(=O)(=O)NC(C)(C)C)cc2)cc1	-8%
O=C(NCc1ccco1)C(c1ccccc1)N(CC1CCCO1)C(=O)Cn1nnc2ccccc21 (centres undefined)	-12%
CCn1c(C)csc1=NC(=O)c1ccccc1	-8%
COc1cccc(NS(=O)(=O)c2ccc3[nH]cc(C(=O)N(C)Cc4ccco4)c(=O)c3c2)c1	-12%
COC1=C[C@@H](C)C2CC3OC(=O)C[C@H]4C(C)=C(OC)C(=O)C([C@@]2(C)C1=O)[C@@]34C (some centres undefined)	-7%
CCCCS(=O)(=O)/C=C\C=C/S(=O)(=O)CCCC	25µM*
CS(=O)(=O)Nc1ccccc1C(=O)NC1CC2CCC1C2 (centres undefined)	?
Cc1ccc(S(=O)(=O)C(C#N)c2nc3ccccc3nc2N2CCCCC2)cc1 (centres undefined)	-12%
CCOC(=O)c1c(C=O)c(C)n(Cc2ccc(C)cc2)c1C	-26%
O=S(=O)(Nc1ncccc1O)c1ccc(Cl)cc1	-5%
COC(=O)[C@@H]1C[C@H]2CC[C@H](O)C[C@H]2N1Cc1ccc(C)s1	5%
CCOC(=O)c1c(N)sc2c(NC(C)=O)cccc12	-10%
CN1C2CCC1/C(=C\c1ccccc1Cl)C(=O)/C2=C\c1ccccc1Cl	-5%
CC(=O)N1CC(C)c2scc(C)[n+]2-c2ccccc21 (centres undefined)	-12%
Cc1occc1C(=O)N1CCN(S(C)(=O)=O)CC1	4%
CCc1ccc(Nc2cnn(-c3nc4ccccc4s3)c(=O)c2Cl)cc1	-21%
Nc1cccnc1Sc1ccc(Cl)cc1	?
CCn1nc(C)c(/C=N\NC(=O)c2ccc3c(c2)OCO3)c1C	-10%
CCSC1=C(C#N)C(c2ccccc2Cl)CC(=O)N1 (centres undefined)	-8%
COC(=O)c1ccc(NC(=S)N2CCN(Cc3cccc(C)c3)CC2)cc1	-2%
NCCSc1nc2ccccc2s1	-6%
O=S(=O)(Nc1nccs1)c1cc(Cl)ccc1Cl	-3%
O=C(N/N=C/c1cc2cc3c(cc2nc1Cl)OCCO3)c1ccccc1O	-28%
O=C(NNC(=O)C1CCN(Cc2ccccc2)CC1)c1cccc(Cl)c1	3%
CC(=O)C1=C(C)NC(SCC(=O)c2cc(Cl)ccc2Cl)=C(C#N)C1c1ccco1 (centres undefined)	28µM*
CCOC(=O)CSc1ncc(OC)c(Sc2ccc(OC)cc2)n1	-24%
Cc1c(Cl)c([N+](=O)[O-])nn1CCCC(=O)NC(C)c1ccccc1 (centres undefined)	-3%
COc1ccc(C(=O)NC(=S)Nc2ccccc2N2CCN(S(C)(=O)=O)CC2)cc1OC	-9%
COC(=O)c1cn(NC(=O)Cc2ccc(Cl)cc2)c(=O)c2ccccc12	?
CCn1cc(CNC(=O)c2ccc(Cl)c([N+](=O)[O-])c2)c(C)n1	-3%
More records:
SMILES	HPGD inh
CCc1nnc(NC(=O)C2CCCN2S(=O)(=O)c2ccccc2)s1 (centres undefined)	-17%
Cc1cc(C)n(C(=O)c2ccc(NC(=O)C3CC3)cc2)n1	-2%
O=C(CN1CCOc2ccccc21)NC1CCN(Cc2ccccc2)CC1	-2%
Cc1nc2ccccc2nc(C)c1=NO	-24%
CCCS(=O)(=O)N1CCCC(C(=O)NCCN(CC)c2ccccc2)C1 (centres undefined)	-14%
O=C1CN(C(=O)CSc2nnc(-c3ccccc3)n2Cc2ccc3c(c2)OCO3)c2ccccc2N1	-11%
O=C(NC1CCSC1=O)c1ccccc1 (centres undefined)	-2%
CCC(=O)n1nc(-c2ccccc2)nc1SCC(=O)Nc1ccc(C)cc1	7.9µM*
Cc1ccccc1NC(=O)c1csc2c1CCCC2	16µM*
Cc1cc(C(=O)Nc2c(C)n(C)n(-c3ccccc3)c2=O)cs1	-6%
CCN(CC)CCNS(=O)(=O)c1ccc(OC)c(Br)c1	2%
CC(C)(C)C(=O)/C(C#N)=c1\s/c(=C\c2ccncc2)c(=O)n1CCCN1CCOCC1	-5%
Cn1cc(S(=O)(=O)NCc2cccs2)c(=O)n(C)c1=O	-14%
Cc1ccc(S(=O)(=O)N2CCOCC2)cc1NC(=O)c1cc2c(s1)CCC2	-5%
Nc1ccc(S(=O)(=O)Nc2nccs2)cc1	-9%&-14%&-11%
FC(F)Sc1ccc(Nc2ncnc3nc[nH]c23)cc1	-13%
O=C(c1c[nH]c(=O)n(-c2ccccc2)c1=O)N1CCc2ccccc21	-10%
O=C(c1ccc(CNS(=O)(=O)c2ccccc2)cc1)N1CCN(Cc2ccccc2)CC1	?
Cc1sc(NC(=O)c2ccccc2)c(C(=O)NC(C)C)c1C	?
O=C(Nc1cccc(C(F)(F)F)c1)N1CCC(c2nc(-c3ccc(F)cc3)no2)CC1	-24%
COc1ccc(OC(=O)c2ccc3nsnc3c2)cc1	-24%
CC(=O)NCCn1c(SCC(=O)NCCC2=CCCCC2)nc2ccccc2c1=O	-7%
COCCn1c(C(=O)N2CCCC2)cc2c1C[C@H]1CN(C(=O)c3ccccc3)[C@@](Cc3ccc(F)cc3)(C(=O)OC)[C@@H]21	-8%&-2%
O=C(Cc1ccc(Br)cc1)N1CCN(c2ccccc2)CC1	4%
CC(CC(=O)N1CCc2ccccc21)c1ccccc1 (centres undefined)	-5%
O=C1S/C(=C/c2ccc(N3CCOCC3)o2)C(=O)N1Cc1c(F)cccc1Cl	-19%
CCOc1ccccc1C1C2CCCCC2(O)CCN1C(=O)c1cccs1 (centres undefined)	-14%
CC(=O)N1C(Nc2ccc(Cl)cc2)CCN1c1ccccc1 (centres undefined)	-4%
CCC(C)(C)C1CCc2nc3ccccc3c(C(=O)OC(C)C(=O)Nc3c(C)n(C)n(-c4ccccc4)c3=O)c2C1 (centres undefined)	-1%
CCc1ccc(N2CC(C(=O)Nc3cccnc3)CC2=O)cc1 (centres undefined)	-19%
COc1ccc(NC(=O)CSc2ncnc3c2cnn3CCc2ccccc2)cc1	-1%
O=S(=O)(NCCc1cn2ccccc2n1)c1ccc2c(c1)OCCO2	-21%

Bioassay records deposited in PubChem BioAssay by National Center for Advancing Translational Sciences (NCATS).

Only part of the results is shown; rates above refer to the full screens.
